Bioassay records from PubChem.
Beta cell apopt = blocks beta cell apoptosis; protection from apoptosis, % (concentration not given with the values); actives 0.8% (n = 300,000); INS-1E cytokine-induced death, ATP luminescence, 48 h; percent of positive-control rescue, neutral wells zero;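 active = all replicates at 75% or more, or half of them and the mean; inconclusive = half reach 75% but not the mean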;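 note: 0% = cytokine-treated negative control wells and 100% = positive control rescue; higher means more ATP so stronger rescue from cytokine killing; wells of about 40 µL received 100 nL stock; the first replicate is given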
RanGTP-Impb inh = disruptors of Ran-importin-beta complex formation – biochemical, FRET, CFP-Ran, YFP-importin-beta, homogeneous, primary screen. cell-free CFP-Ran/YFP-importin-beta FRET ratio. AID 2216. actives 1.1% (n = 300,000). inhibition, % (test concentration not listed);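 active = most replicates above 15%; inconclusive = exactly half above 15%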;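 note: 0% = DMSO wells and 100% = Ran loaded with GDP instead of GTP; wells of about 40 µL received 100 nL stock; the first replicate is given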
Calb FLC = C. albicans growth modulation with fluconazole | AID 1979 | C. albicans CaCi-2 (fluconazole-resistant clinical isolate) + fluconazole, Alamar Blue growth, 48 h | actives 0.57% (n = 300,000) | growth inhibition, % (concentration not given with the values);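 active = most replicates above 75%; inconclusive = exactly half above 75%; inactive = most below 75%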;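 note: all wells also contain fluconazole at 8 µg/ml as a sub-toxic cotreatment; 0% = median of DMSO wells and 100% = median of geldanamycin control wells; wells of about 8 µL received 7.5 nL stock; the first replicate is given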
UCH37 inh = inhibitors of human deubiquitinating enzyme UCH37; Q9Y5K5; actives 0.33% (n = 330,000); purified proteasome/UCH37, Ub-AMC cleavage fluorescence; inhibition, % (no concentration beside the values); AID 588478;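 active = mean of two replicates above 20%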;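 note: 0% = compound-free wells with enzyme and 100% = wells lacking proteasome; stock transfer was 100 nL into about 20 µL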
Target sequence (Q9Y5K5 whole entry, looked up): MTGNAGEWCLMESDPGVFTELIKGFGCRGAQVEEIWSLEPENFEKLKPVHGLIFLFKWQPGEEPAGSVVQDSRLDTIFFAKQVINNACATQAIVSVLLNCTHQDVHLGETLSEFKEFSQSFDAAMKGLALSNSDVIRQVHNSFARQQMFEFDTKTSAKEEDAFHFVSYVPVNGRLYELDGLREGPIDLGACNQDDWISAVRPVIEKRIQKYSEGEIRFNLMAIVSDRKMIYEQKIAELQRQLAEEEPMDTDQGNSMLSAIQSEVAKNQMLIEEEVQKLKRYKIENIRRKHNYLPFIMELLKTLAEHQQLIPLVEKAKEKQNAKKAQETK
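Assay system: Proteasome-bound UCH37. Buffer or medium: pH 7.4 Tris-HCl (50 mM) with ovalbumin, ATP-MgCl2, DTT. Incubation: 30 min preincubation with enzyme, 25 min cleavage at room temperature. Measured by: fluorescence, ex 355 nm, em 460 nm. Read-out basis: percent inhibition. Control set: wells without proteasome as full block, compound-free enzyme plus substrate as uninhibited.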
LANA-H2B inh = blocks KSHV LANA binding to histone H2A/H2B | cell-free LANA-H2A/H2B peptide, fluorescence polarization | inhibition, % (test concentration not listed) | actives 0.6% (n = 320,000); in the data active = inhibition mostly above about 10%, no sharp cut-off; inactive = mostly below about 6.7%;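 note: stock transfer was 7.5 nL into about 10 µL; 0% = median of vehicle wells and 100% = median of positive control wells; one replicate is shown; the record names a cut of 25% in any replicate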
T cruzi inh = T. cruzi replication inhibition; T. cruzi beta-gal in NIH3T3, luminescence, 90 h; inhibition, % (test concentration not listed); actives 1.4% (n = 300,000); AID 1885;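 active = mean inhibition across valid replicates above about 55%, limit read from the data; inconclusive = mean below that limit but half or more replicates reach it; inactive = mean below it, under half of replicates reach it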;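 note: signal also drops with host cell toxicity which is not excluded here; 0% = plate median of DMSO wells and 100% = zero luminescence signal; higher percent means less beta-gal luminescence so fewer parasites; stock transfer was 50 nL into about 50 µL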
Bfl-1 A1 inh = inhibitors of the anti-apoptotic protein A1, read as caspase activation; MEF A1-2A-BIM cells, Caspase-Glo 3/7 luminescence, 3 h; percent of clofoctol response, vehicle zero; caspase activation, % (no concentration beside the values); actives 0.066% (n = 330,000); AID 2462;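 active = over half of replicate activation scores above 10%, or exactly half above 10 with the replicate mean above 10; inconclusive = replicate mean below 10 yet half the replicates above 10; inactive = over half of replicates below 10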;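 note: wells of about 30 µL received 50 nL stock; many hits fall short of the cut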
B2AR ag = human beta-2 adrenergic receptor agonism by FAP; response, % (test concentration not listed); P07550; actives 0.43% (n = 340,000); Am2.2-beta2AR cells, FAP receptor internalization, flow cytometry; reference of the scale not given here;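 active = response above a set limit, near 3 SD of response in nonfluorescent compounds, cut at about 42% in these data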;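 note: stock transfer was 100 nL into about 11 µL; a reference agonist was the positive control; negative values mostly stem from fluorescent compounds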
Target sequence (P07550 whole entry, looked up): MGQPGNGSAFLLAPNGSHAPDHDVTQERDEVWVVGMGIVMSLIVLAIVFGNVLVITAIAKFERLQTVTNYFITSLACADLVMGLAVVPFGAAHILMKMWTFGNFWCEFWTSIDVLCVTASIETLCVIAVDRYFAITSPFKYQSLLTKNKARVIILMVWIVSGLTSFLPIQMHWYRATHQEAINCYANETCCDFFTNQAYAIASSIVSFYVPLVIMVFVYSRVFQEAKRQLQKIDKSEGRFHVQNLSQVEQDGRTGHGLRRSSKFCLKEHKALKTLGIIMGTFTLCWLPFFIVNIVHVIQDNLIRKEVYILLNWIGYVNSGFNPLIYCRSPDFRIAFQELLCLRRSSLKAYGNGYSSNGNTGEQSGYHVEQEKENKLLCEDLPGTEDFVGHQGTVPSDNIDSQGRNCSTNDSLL
Numbers without * were called inactive; ? = inconclusive; / = no result given.

SMILES	Beta cell apopt	RanGTP-Impb inh	Calb FLC	UCH37 inh	LANA-H2B inh	T cruzi inh	Bfl-1 A1 inh	B2AR ag
Nc1ccc2nc(CCCCc3nc4ccccc4[nH]3)[nH]c2c1	0	2.3	-7	6.1	-5.4	7	0.0	1
O=C1CCC2S/C(=C/Nc3ccc(C(F)(F)F)cc3)C(=O)N12 (stereo unspecified)	-9	7.0	16	7.9	-2.6	-2	0.2	-4
CN(C(=O)c1ccc(Br)o1)C1CCCCC1	-5	8.6	3	2.9	0.4	-22	-0.4	-8
COc1ccc(C(=O)N/C(=C/c2cccnc2)C(=O)NCc2ccco2)cc1OC	-3	-0.8	-4	0.5	-2.9	3	-0.2	-9
c1ccc(OCc2noc(CN3CCC(C4CCCCC4)C3)n2)cc1 (stereo unspecified)	-2	-0.1	30	-0.5	-2.9	54	0.6	1
CCOc1cc(S(=O)(=O)NCc2ccncc2)ccc1Cl	111*	2.2	32	0.8	3.7	-65	1.7	-8
CCOC(=O)N1CCC(n2c(SCC(=O)NCc3ccco3)nc3ccsc3c2=O)CC1	/	3.5	-21	6.1	2.7	8	0.4	3
O=C(COc1ccc2ccccc2c1)NNC(=O)c1ccccc1	-5	0.0	-3	3.2	2.0	-4	-0.2	-3
Cc1ccc(-c2nc(-c3ccncc3)no2)cc1C	/	0.3	12	1.2	-1.4	-20	-5.2	1
COc1cccc(-c2ccc(C#N)c(SCC(=O)NCCc3ccccc3)n2)c1	-1	1.8	-4	-22	-4.1	-4	0.8	-5
CCC(C)[C@H](NC(=O)N1CC(=O)Nc2ccccc21)C(=O)N[C@@H](Cc1c[nH]c2ccccc12)C(=O)O (stereo partly specified)	-1	4.8	5	4.5	4.4	-8	-0.1	-9
Cc1occc(=O)c1OC(=O)Nc1ccc(Cl)c(Cl)c1	106*	/	/	6.9	-2.9	/	0.4	10
CCN(c1ccc(OC)cc1)S(=O)(=O)c1cc(-c2cc(C)no2)ccc1OC	-9	3.1	9	4.7	-0.2	8	1.5	-3
COC(=O)[C@@H](NC(=O)N1CCN(c2cccc(C(F)(F)F)c2)CC1)C(C)C	-2	-0.1	1	5.5	-0.2	1	-0.4	3
CCOc1ncccc1C(=O)OCC(=O)c1ccccc1Br	-4	-2.8	15	1.4	4.8	2	0.7	-4
Cc1ccc(C)c(NC(=O)CSc2nc3nc(-c4cccs4)cc(C(F)(F)F)c3c(=O)[nH]2)c1	11	6.9	-7	-136	-8.2	-9	-1.0	6
Cc1ccc(OCCOC(=O)C2CCN(S(=O)(=O)c3ccc(C)c(C)c3)CC2)cc1	-2	-3.7	-3	3.2	-8.1	-5	0.4	0
O=C(/C=C(\O)c1ccccc1)C(=O)NNC(=O)c1ccccc1	-2	-5.2	/	/	1.3	-11	0.2	-4
CCN(C(=O)COC(=O)c1cccnc1SC)C1CCS(=O)(=O)C1 (stereo unspecified)	-2	2.6	10	-7.2	2.9	-5	0.2	0
Cc1ccc(C)c(NC(=O)C(OC(=O)c2ccc(NC(=O)CC#N)cc2)c2ccccc2)c1 (stereo unspecified)	/	-2.1	11	-0.9	-0.1	1	0.0	1
CSCCC(NC(=O)c1ccco1)C(=O)N1CCN(c2ccccc2O)CC1 (stereo unspecified)	4	/	/	4.3	10	/	1.2	1
Cc1ccccc1C(=O)N1CCN(S(=O)(=O)c2cccs2)CC1	-4	-3.3	6	0.4	5.4	-8	0.1	-5
O=C(c1ccc(S(=O)(=O)NCc2ccco2)cc1)N1CCN(c2ccc(F)cc2)CC1	-6	/	/	1.3	0.9	/	-0.3	3
CCOc1ccccc1N1C(=O)CC(Sc2n[nH]c(-c3ccccc3)n2)C1=O (stereo unspecified)	-11	-0.4	-6	0.3	5.6	-16	0.2	25
Cc1cc(C)n(-c2cc(N3CCOCC3)ncn2)n1	-3	2.3	2	4.3	1.0	3	0.1	-1
COC(=O)c1ccccc1-c1ccc(C=O)o1	-4	-1.4	-3	3.5	4.7	-6	0.6	4
CC1(C)CC(=O)C(Sc2nnc(-c3ccc(O)cc3)n2CC2CCCO2)C(=O)C1 (stereo unspecified)	-4	2.8	-8	0.4	3.0	0	-0.1	2
O=C(NC(=S)Nc1nc(-c2ccccc2)cs1)c1ccco1	4	-3.1	7	1.2	3.2	3	0.4	-11
COC(=O)c1nc(-c2ccccc2)nc(-c2ccccc2)c1C(=O)OC	/	7.4	-2	2.9	-2.0	5	0.9	-7
CC(=O)Nc1ccc(NC(=O)C(=O)c2cn(CC(=O)N3CCCCC3)c3ccccc23)cc1	-5	/	31	5.5	0.6	/	-0.1	6
O=C1NCCCN1Cc1ccc(F)cc1Cl	/	1.4	-13	3.5	/	4	/	1
CC1CCCCN1CCCNC(=O)c1ccc(N2CCCC2=O)cc1 (stereo unspecified)	1	?	-3	3.3	-3.4	-4	-0.2	2
CN(Cc1ccccc1F)C(=O)c1ccc(NS(=O)(=O)c2ccc3[nH]c(=O)[nH]c3c2)cc1	-2	-0.8	/	/	5.5	-8	-0.5	3
CC(C)(C)NC(=O)CN(Cc1cccs1)C(=O)CNS(=O)(=O)c1ccc(F)cc1	-5	4.7	2	2.6	-0.8	-10	-0.4	12
Cc1ccc(CNC(=O)[C@@H]2CCC(=O)N2Cc2ccco2)cc1	/	-3.5	1	0.0	2.1	-9	-1.0	-1
COc1cc(C(=O)NCCOc2ccccc2)c(Br)c(OC)c1OC	-3	0.1	-6	1.0	-2.1	-8	0.6	0
CN(Cc1cc(-c2ccccc2)on1)C(=O)c1cc(COc2c(F)cccc2F)on1	-5	1.7	0	0.6	-1.1	7	0.7	-2
CCOC(=O)CSc1nc2cc(C(F)(F)F)cnc2n1C	/	-1.7	-1	0.7	-0.2	-16	-0.9	4
CC1CCCCN1C(=O)Cn1cc(C=O)c2ccccc21 (stereo unspecified)	-3	-0.1	2	4.2	7.4	-3	0.3	9
Cc1ccc(OC(=O)C(F)(F)F)c2c1NCCC2	1	-1.5	-18	2.3	-4.6	-7	0.3	1
COc1ccc(NC(=O)C2CCCN2C(=O)NCc2ccccc2)cc1OC (stereo unspecified)	-6	5.6	?	2.2	-1.3	1	-0.7	5
O=C(Nc1ccc(Br)cn1)c1cccc2ccccc12	17	1.5	2	1.7	2.5	2	0.2	3
O=C(O)c1sccc1SCc1ccc(Cl)cc1Cl	0	?	23	2.4	5.6	-3	-1.2	6
O=C(CN1CCSC1=O)N1CCN(S(=O)(=O)c2ccccc2)CC1	-3	/	/	-0.7	-4.8	/	0.1	3
Cc1ccc(S(=O)(=O)N2CCOC23CCN(C(=O)c2ccccc2Br)CC3)cc1	-8	-2.0	-16	-2.1	1.4	11	0.4	-1
Cc1ccc(C)c(NC(=O)CN(C)C(=O)c2ccc(-n3cncn3)c([N+](=O)[O-])c2)c1	-1	/	-9	-0.1	-14	-8	0.4	-6
COc1ccc(OC)c(NC(=O)Nc2ccc3c(c2)OCO3)c1	-4	-0.8	-9	2.5	2.6	1	-1.5	7
Cc1ccc2c(c1)nnn2C1CCN(S(=O)(=O)c2ccc(C(=O)N(C)C)cc2)CC1	-2	-0.1	-1	2.6	0.0	9	0.8	-12
CCn1c(N2CCC(Cc3ccccc3)CC2)nc2c1c(=O)[nH]c(=O)n2C	1	-1.8	23	4.8	-1.0	7	0.6	1
COCc1cc(=O)n2c(-c3ccc(C)cc3)n[nH]c2n1	-5	0.6	0	-3.8	3.2	-11	-0.7	9
CC1C(=O)Nc2ccc(S(=O)(=O)N3CCc4ccccc4C3)cc2NC1=O (stereo unspecified)	-2	0.5	-1	1.8	4.1	-1	0.2	1
COc1ccc(Cc2nnc(NCCO)[nH]c2=O)cc1OC	-3	1.7	0	1.0	-3.7	-1	0.7	-11
CCOc1ccccc1NC(=O)c1ccccc1NS(C)(=O)=O	1	4.8	58	3.7	1.5	-13	-1.0	4
Cc1ccccc1C1c2[nH]c3ccccc3c2CCN1Cc1cccn1-c1ncccn1 (stereo unspecified)	-1	3.2	2	-12	3.1	55*	0.3	7
CC(=O)Nc1ccc(S(=O)(=O)CCC(=O)O)cc1	2	3.6	-18	1.0	0.7	9	-1.0	1
CCOc1ccc(Cl)cc1S(=O)(=O)n1cnc2ccccc21	2	-2.8	9	2.9	0.3	-7	0.1	-6
Cc1n[nH]c(C)c1CCc1nc2c3ccccc3nc(SCC(=O)Nc3ccccc3F)n2n1	18	2.4	-19	0.9	16	12	1.9	5
COc1ccc(-c2nc(-c3ccccn3)nc(N3CCN(C)CC3)c2C#N)cc1	-8	-2.7	-2	0.7	-1.2	29	0.8	-29
CCn1c2ccccc2c2nnc(SCC(=O)c3c(N)n(C)c(=O)n(C)c3=O)nc21	7	3.4	?	3.1	-4.0	1	0.8	2
O=C(Nc1ccc(N2CCN(C(=O)C3CC3)CC2)cc1)c1cccs1	14	-1.2	-8	6.6	-4.8	-7	0.8	2

(list continues)
SMILES	Beta cell apopt	RanGTP-Impb inh	Calb FLC	UCH37 inh	LANA-H2B inh	T cruzi inh	Bfl-1 A1 inh	B2AR ag
O=C(Nc1cc(C(F)(F)F)ccc1N1CCOCC1)C1=NN(c2ccccc2)C(=O)CC1	28	0.7	0	1.8	-8.4	-3	-0.8	-2
CC(C)(C)c1nc2ccc([N+](=O)[O-])cc2[nH]1	3	-0.8	-3	5.8	1.0	-10	0.4	-2
O=C(c1ccc(C(F)(F)F)cc1)N1CCCCC1	-2	-2.3	-1	-0.3	-0.7	-10	-0.7	-6
COc1ccc(N2C(=O)CCC(C(=O)N(C)CCc3ccccn3)C2c2ccc(OC)c(OC)c2)cc1 (stereo unspecified)	-7	-1.6	-10	3.1	-2.2	-12	-0.3	-5
CCCCn1c(SCc2nc(N)nc(N3CCCCC3)n2)nc2c1c(=O)n(C)c(=O)n2C	-2	-2.1	23	2.6	-3.3	25	-0.2	-5
N#Cc1ccc(C2N=C(c3ccccc3)NO2)cc1 (stereo unspecified)	2	5.4	-7	1.1	6.7	-9	0.4	-1
CN(CCOc1ccc(Cl)cc1)C(=O)CN1C(=O)NC2(CCCC2)C1=O	-8	5.7	-4	3.0	3.4	-10	0.4	-22
CCOc1ccccc1OCCCNCc1ccco1	-1	-4.0	-5	3.9	-2.2	12	0.7	-33
CC1CCN(C(=O)c2ccc(NS(=O)(=O)c3cccc4cccnc34)cc2)CC1	-12	-2.3	0	3.5	-9.5	-5	1.8	8
CC(C)(C)OC(=O)NCCCCCc1cn(CC(=O)NCCCCCCCCCCC(=O)N2CCN(C(=O)OC(C)(C)C)CC2)nn1	61	/	/	-0.6	1.4	/	-0.8	5
O=C(Nc1sc2c(c1C(=O)c1ccc(Cl)cc1)CCCC2)c1cccnc1	4	?	84*	3.3	-6.1	34	/	-6
O=C(c1ccc(Cl)s1)N1CCN(c2ncccn2)CC1	-4	?	1	5.4	-5.2	2	0.6	-13
COc1ccc(OCCOC(=O)c2ccc(F)c(S(=O)(=O)N3CCOCC3)c2)cc1	-1	/	/	-0.2	-3.4	/	1.7	-2
